RanGTP-Imp inh – inhibitors of RanGTP-importin-beta interaction, primary screen, biochemical, FRET, CFP-Ran, YFP-importin-beta, homogeneous; cell-free CFP-Ran/YFP-importin-beta FRET ratio; inhibition, % (concentration not given with the values); 1.1% of 300,000 active; AID 2216;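 active = most replicates above 15%; inconclusive = exactly half above 15%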;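 note: 0% = DMSO wells and 100% = Ran loaded with GDP instead of GTP; wells of about 40 µL received 100 nL stock; the first replicate is given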
A1 inh – inhibitors of the anti-apoptotic protein A1, read as caspase activation | 0.066% of 330,000 active | AID 2462 | MEF A1-2A-BIM cells, Caspase-Glo 3/7 luminescence, 3 h; percent of clofoctol response, vehicle zero | caspase activation, % (test concentration not listed);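 active = over half of replicate activation scores above 10%, or exactly half above 10 with the replicate mean above 10; inconclusive = replicate mean below 10 yet half the replicates above 10; inactive = over half of replicates below 10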;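 note: wells of about 30 µL received 50 nL stock; many hits fall short of the cut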
rRNA inh HTS – inhibits bacterial ribosomal RNA function over humanized ribosomes | E. coli WT GFP vs humanized-ribosome RFP mutants, fluorescence, 24 h; active compounds read low; DMSO median 0, no signal -100 | GFP signal change (wild-type ribosome), % (concentration not given with the values) | 1.6% of 350,000 active | AID 720706;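 active = significant combined selectivity score with lowered wild-type GFP, culture density cut under 30%, mutant RFP and density less affected; inactive = any of these conditions unmet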; note: one replicate is shown; some compounds called inactive have numbers as strong as hits
T cruzi inh – T. cruzi replication inhibition; T. cruzi beta-gal in NIH3T3, luminescence, 90 h; inhibition, % (no concentration beside the values); 1.4% of 300,000 active;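 active = mean inhibition across valid replicates above about 55%, limit read from the data; inconclusive = mean below that limit but half or more replicates reach it; inactive = mean below it, under half of replicates reach it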;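 note: signal also drops with host cell toxicity which is not excluded here; 0% = plate median of DMSO wells and 100% = zero luminescence signal; higher percent means less beta-gal luminescence so fewer parasites; stock transfer was 50 nL into about 50 µL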
Beta apoptosis – beta cell apoptosis inhibition | protection from apoptosis, % (test concentration not listed) | AID 435005 | 0.8% of 300,000 active | INS-1E cytokine-induced death, ATP luminescence, 48 h; percent of positive-control rescue, neutral wells zero;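 active = all replicates at 75% or more, or half of them and the mean; inconclusive = half reach 75% but not the mean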;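 note: 0% = cytokine-treated negative control wells and 100% = positive control rescue; higher means more ATP so stronger rescue from cytokine killing; wells of about 40 µL received 100 nL stock; the first replicate is given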
Calb FLC – C. albicans growth modulation with fluconazole; C. albicans CaCi-2 (fluconazole-resistant clinical isolate) + fluconazole, Alamar Blue growth, 48 h; growth inhibition, % (no concentration beside the values); 0.57% of 300,000 active;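 active = most replicates above 75%; inconclusive = exactly half above 75%; inactive = most below 75%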;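 note: all wells also contain fluconazole at 8 µg/ml as a sub-toxic cotreatment; 0% = median of DMSO wells and 100% = median of geldanamycin control wells; wells of about 8 µL received 7.5 nL stock; the first replicate is given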
MLL AF4-AF9 inh – blocks AF4 peptide binding to human AF9; P42568; AlphaScreen, biotin-AF4 peptide binding to FLAG-AF9; inhibition, % at 10 µM; 0.47% of 350,000 active; AID 651704;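 active = every replicate reaching a set inhibition limit, whatever the replicate mean, cut at about 25% in these data; inconclusive = mean inhibition reaches that limit but some replicates miss it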;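 note: 0% = plate neutral control median and 100% = total signal loss; the record names both 10 and 1 µM as test concentration; the first replicate is given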
Target sequence (P42568 whole entry, looked up): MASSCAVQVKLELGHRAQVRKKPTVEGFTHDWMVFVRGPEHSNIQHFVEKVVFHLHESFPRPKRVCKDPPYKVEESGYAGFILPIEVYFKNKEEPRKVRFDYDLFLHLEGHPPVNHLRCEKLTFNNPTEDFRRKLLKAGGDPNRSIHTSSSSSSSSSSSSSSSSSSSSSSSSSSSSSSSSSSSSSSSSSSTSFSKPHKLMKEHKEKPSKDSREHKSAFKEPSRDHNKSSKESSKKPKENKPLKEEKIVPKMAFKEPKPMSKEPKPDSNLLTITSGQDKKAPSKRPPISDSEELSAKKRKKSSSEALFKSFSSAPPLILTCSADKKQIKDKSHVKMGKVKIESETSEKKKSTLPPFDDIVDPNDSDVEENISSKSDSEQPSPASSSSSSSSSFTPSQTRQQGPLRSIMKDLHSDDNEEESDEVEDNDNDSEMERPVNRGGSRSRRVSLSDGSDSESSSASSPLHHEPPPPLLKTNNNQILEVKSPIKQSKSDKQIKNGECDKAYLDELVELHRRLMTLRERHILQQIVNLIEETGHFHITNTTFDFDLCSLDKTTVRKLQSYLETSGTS
Vif A3G – HIV-1 Vif–A3G interaction blockers – biochemical, TR-FRET, GST-Vif 1-94, biotin-A3G peptide, dose response retest, primary screen (AID 1117319) | TR-FRET GST-Vif / biotin-A3G peptide binding; higher % means a stronger effect; test concentration not given here; strong numbers were not always called active | inhibition, %, or IC50 in µM where a hit was titrated | 0.57% of 260,000 active;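 active = above the screen mean plus three standard deviations and confirmed in dose response; inconclusive = results disagree or hit not tested in dose response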;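 note: Vif residues 1-94 fused to GST binding biotinylated APOBEC3G peptide 110-148; 0% = full assay without inhibitor and 100% = GST in place of GST-Vif; retest series ran down from 100 µM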
rRNA inh HTS OD600 – second read-out of rRNA inh HTS, no call of its own (marks repeat the call); OD600 change, %; measured here: OD600 growth;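 optical density of the mix in the first replicate; 0 = DMSO median and -100 = no signal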
rRNA inh HTS RFP – further read-out of rRNA inh HTS, marked with its call; RFP signal change, %; measured here: RFP humanized mutant strains;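 first replicate; 0 = DMSO median and -100 = no signal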
* marks the source's active call; other numbers are inactive results; ? = inconclusive; · = no result given. Some of the compounds tested, so the mix of outcomes need not match the whole.

SMILES	RanGTP-Imp inh	A1 inh	rRNA inh HTS	rRNA inh HTS OD600	rRNA inh HTS RFP	T cruzi inh	Beta apoptosis	Calb FLC	MLL AF4-AF9 inh	Vif A3G
COCC(=O)Nc1nc2n(n1)C(c1ccc(Cl)cc1)CC(c1ccc(OC)cc1)N2 (centres undefined)	-0.1	-0.5	·	·	·	12	-8	-4	·	1%
CC(C)c1cc(C(=O)OCC(=O)N2CCN(C(=O)c3ccco3)CC2)c(O)c(C(C)C)c1	-4.7	0.7	-7	-31	-3.8	-5	·	-9	-2.7	6%
Nc1c(C(=O)O)cnc2nc(N3CCOCC3)nn12	-2.7	1.4	3	3	-1.6	5	-7	-1	-4.8	8%
COC(=O)CN1C(C)=Nc2ccc(Br)cc2C1c1ccccc1 (centres undefined)	0.3	0.8	-3	2	9.2	-4	-4	6	·	5%
CCOc1ccc(NC(=O)Cn2nnc(C(=O)NCc3cccs3)c2N)cc1	-0.5	0.3	9	8	1.2	-11	·	-10	-0.4	-4%
COCCNC(=S)NNC(=O)c1ccc(-n2cnnn2)cc1	2.9	-0.2	9	7	-1.1	3	3	-24	-2.2	7%
O=C1CCCC2=C1C1c3ccccc3C(=O)N1c1ccc(C(=O)c3ccccc3)cc1N2 (centres undefined)	6.0	0.1	5	12	22	9	2	21	·	?
COC(=O)[C@H](CC(C)C)NC(=O)NCc1ccc(Cl)cc1	-0.9	-0.1	-3	-20	-0.7	-4	-4	-6	-4.8	2%
CC(C)(C)c1ccc(C(CC(=O)O)NC(=O)c2ccccc2F)cc1 (centres undefined)	5.1	-0.1	10	13	-0.7	-9	-2	-2	-1.7	-2%
COc1cccc(/C=C2\SC(N)=NC2=O)c1OS(=O)(=O)c1ccccc1	13	0.2	13	8	-3.9	7	-2	-1	0.1	71%
Cc1ccc2oc(=O)c3cnn(CC(=O)NC4CCC(C)CC4)c3c2c1 (centres undefined)	4.0	1.2	2	10	-5.6	-1	-7	-2	5.3	2%
COc1ccc(C=NOCC(=O)OCC(=O)Nc2ccc(OC)cc2)cc1	·	-0.2	-4	-1	-2.1	·	-4	·	0.7	·
CCOC(=O)/C(C#N)=C/c1c(Oc2cc(C)cc(C)c2)nc2ccccn2c1=O	3.4	0.2	·	·	·	-8	-2	4	·	·
C=C(C)CCC(C)N1CCC(n2nccc2NC(=O)CCOc2ccccc2)CC1 (centres undefined)	7.1	0.2	19	12	2.6	41	6	-8	-0.3	·
COc1ccccc1/C=C/C=N/NC(=O)c1cc(-c2ccc(C)o2)[nH]n1	-0.6	2.8	-23	-13	-0.3	7	12	10	6.1	-1%

Reprinted from the part before: 2 entries, followed by the next part.
SMILES	RanGTP-Imp inh	A1 inh	rRNA inh HTS	rRNA inh HTS OD600	rRNA inh HTS RFP	T cruzi inh	Beta apoptosis	Calb FLC	MLL AF4-AF9 inh	Vif A3G
C=C(C)CCC(C)N1CCC(n2nccc2NC(=O)CCOc2ccccc2)CC1 (centres undefined)	7.1	0.2	19	12	2.6	41	6	-8	-0.3	·
COc1ccccc1/C=C/C=N/NC(=O)c1cc(-c2ccc(C)o2)[nH]n1	-0.6	2.8	-23	-13	-0.3	7	12	10	6.1	-1%
O=C(c1cccnc1Nc1ccc2c(c1)CCC2)N1CCOCC1	-1.0	0.8	·	·	·	-7	-4	10	·	4%
CC/C(O)=C1\C(=O)CC(c2ccccc2)CC1=NCCc1c(C)[nH]c2ccc(C)cc12 (centres undefined)	2.4	1.4	-1	9	-1.3	37	0	9	-0.6	-5%
COc1cc(/C=C/c2nc3ccccc3c(=O)[nH]2)ccc1OC(F)F	-0.1	-3.2	9	10	-0.6	1	5	-1	-1.9	-10%
CC1(C)CSC(=S)N1S(=O)(=O)c1ccccc1	-0.4	1.0	-7	-9	3.1	13	-5	-6	·	-4%
CCc1ccccc1NC1=NCC(=O)N1Cc1ccc(OC)cc1	0.1	-0.3	·	·	·	0	-21	-2	·	-5%
CCOc1ccc(C2N(c3cc(Cl)ccc3OC)C(=O)C3CCCN32)cc1OC (centres undefined)	5.0	-1.2	6	3	-1.1	-1	-9	-3	-0.1	0%
CCN(CC)CCNC(=O)CCc1n[nH]c(=O)c2ccccc12	6.6	0.4	·	·	·	9	-7	0	·	-6%
CN(C1CCCCC1)S(=O)(=O)c1ccc(C(=O)O)cc1	7.1	1.0	·	·	·	-5	-3	?	·	18%
CCSc1nnc(NC(=O)COc2ccccc2)s1	-0.1	0.0	-4	0	-4.4	-6	-6	-6	-5.9	5%
CC(C)CNC(=O)C(=O)Nc1cc2c3c(c1)CCC(=O)N3CCC2	-3.8	1.0	4	3	-1.8	-14	1	12	-1.9	·
C=C1C[C@H]2[C@@H]3C=C(C)C4=CC(=O)CC[C@]4(C)[C@H]3CC[C@]2(C)[C@@]1(OC(C)=O)C(C)=O	4.8	0.3	·	·	·	22	5	5	7.3	·
COc1ccc(/C=C2/CC/C(=C\c3ccc(OC)c(OC)c3OC)C2=O)c(OC)c1OC	-7.4	-0.4	·	·	·	21	8	11	·	·
Cc1ccc(N2CC(C(=O)Nc3ccc(N4CCOCC4)cc3)CC2=O)cc1C (centres undefined)	2.4	-0.7	2	11	-2.3	-5	1	10	-6.8	·
CCNS(=O)(=O)c1ccc2nc(NC(=O)c3cccnc3)sc2c1	-0.8	-1.6	·	·	·	-9	-3	-2	·	-12%
O=C(NC(=S)Nc1ccc(C(=O)N2CCOCC2)cc1)c1ccc([N+](=O)[O-])cc1	5.0	0.2	·	·	·	-20	5	10	·	3%
Cc1ccnc(N2CCC(C(=O)NNC(=O)c3ccncc3)CC2)n1	-1.5	0.2	12	12	1.1	-1	1	-10	0.3	-1%
Cn1c(=O)c2cc(S(=O)(=O)Nc3cccc(F)c3)ccc2n(C)c1=O	1.1	0.2	·	·	·	6	6	6	·	-2%
O=C(Nc1c2c(nn1-c1ccccc1)CS(=O)(=O)C2)c1ccc2c(c1)OCO2	-1.3	-0.1	3	9	-1.1	-3	-5	4	-1.1	·
O=C(Nc1ccc(OC(F)F)cc1)c1cc(S(=O)(=O)N2CCOCC2)ccc1F	-0.6	1.1	-7	-10	-2.1	-5	1	10	-0.3	-8%
CCS(=O)(=O)n1nc(-c2ccc(Cl)cc2)nc1N	-8.9	-0.4	-1	2	2.5	11	·	1	-13	-3%
O=C(c1ccc(-c2ccc([N+](=O)[O-])cc2)o1)N1CCCCCCC1	·	2.9	-23	-30	-2.4	·	-1	·	-16	18%
O=C(NCc1ccco1)C1CCN(c2nnc(-n3cccc3)s2)CC1	2.7	1.2	1	7	-1.3	10	3	-8	-2.1	3%
Cn1cnnc1SCC(=O)NC1CCCC1	?	-1.2	2	13	-2.0	-13	7	-3	-2.3	-4%
O=C(CCc1nnc2ccc(NCc3ccccc3)nn12)NCC1CCN(C2CCCC2)C1 (centres undefined)	3.1	0.9	6	4	3.8	-4	-6	-8	6.8	·
NS(=O)(=O)c1cccc(NC(=O)CSc2nn(-c3ccccc3)c(=S)s2)c1	-0.9	0.5	·	·	·	-10	·	1	·	1%
CC1CCCCC1NC(=O)c1ccc(-n2cncn2)cc1 (centres undefined)	·	0.0	1	-1	-4.2	·	5	·	-3.5	·
COc1cc(OC)cc(C(=O)Nc2ccc3c(c2)n(C)c(=O)n3C)c1	1.5	-0.6	-8	4	-2.5	0	3	-5	0.2	2%
Cc1cc(C(=O)CN2CCN(CC(=O)Nc3cccc(F)c3)CC2)c(C)n1C1CC1	·	1.4	16	2	2.6	·	-5	·	4.7	-10%
COc1cc(NC(=S)NCc2ccc(S(N)(=O)=O)cc2)c(OC)cc1Cl	?	-0.4	1	-4	-3.5	4	-2	3	-0.2	·
NNC(=O)c1[nH]c(-c2ccccc2)cc1-c1ccccc1	7.6	0.0	-17	-24	-2.5	15	0	-2	0.5	·
COc1ccccc1N1CCN(C(=O)c2ccc3c(=O)n4c(nc3c2)CCCCC4)CC1	·	1.5	-5	-5	-0.1	·	1	·	4.1	3%
COc1ccc(N2C(=O)c3ccccc3NC23CCC(C)CC3)cc1 (centres undefined)	4.0	-2.2	·	·	·	-7	3	2	·	-2%
Cc1ccsc1C(=O)OCc1nnc(-c2ccccc2)o1	·	-9.9	-17	-22	2.1	·	-7	·	-2.0	·
Cc1nc(C(F)(F)F)nc(Nc2ccc(Br)cc2)c1C#N	5.4	-1.1	·	·	·	14	3	-4	·	4%
CC1(C)NC(=O)N(CCOCCOc2ccc3ccccc3c2Br)C1=O	3.6	0.0	·	·	·	-1	-9	6	·	?
O=C(O)/C=C/C(=O)N1CCN(C(c2ccccc2)c2ccccc2)CC1	1.1	0.6	12	-2	-1.5	-34	-8	-5	-16	-8%
COc1ccc(NC(=O)COC(=O)c2cc(OC)c(OC)cc2NC(=O)c2ccco2)cc1OC	?	-0.1	·	·	·	-13	-4	14	·	-5%
NC1=NC(c2cccc(Cl)c2)N(CCc2ccc(F)cc2)C(N)=N1 (centres undefined)	-5.2	0.2	12	8	1.8	19	3	0	4.7	-12%
CCCC(=O)Nc1ccc2nc(SCC(=O)Nc3nccs3)sc2c1	?	0.2	·	·	·	-2	-1	9	·	-1%
N#Cc1ccc(N2CCOCC2)nc1	4.6	0.4	12	-3	2.3	-1	-4	-1	-11	-12%
COc1cc(/C=N/O)c(Br)cc1OCC(=O)Nc1ccccc1C	2.1	0.5	9	19	3.4	-9	6	24	-0.3	-4%
S=C(NC1CCCCC1)N1CCN(c2ccccn2)CC1	0.2	-0.9	·	·	·	19	-5	-8	-1.7	·
COc1ccc(Nc2nc3ccccc3n3cnnc23)cc1	?	-0.3	·	·	·	-6	-34	47	·	2%
CCOc1ccc(N/C(SCc2cccc([N+](=O)[O-])c2)=C(/C#N)C(N)=O)cc1	-0.6	-1.1	-2	-3	9.9	24	-16	8	9.9	4%
CCOc1cc(/C=C2/NC(=O)NC2=O)cc(Br)c1OCc1ccc(C(=O)O)cc1	?	0.5	-34	-37	-4.5	-5	-2	-9	-2.5	11%
c1ccc2c(Nc3nc(-c4ccncc4)nc4ccccc34)cccc2c1	1.8	-2.3	·	·	·	44	13	-3	-0.8	-7%
CC1=C(C(=O)OCc2ccccc2)C(c2ccccc2Cl)NC(=O)N1CCCC(=O)O (centres undefined)	1.3	-0.1	-10	-3	-2.9	-4	3	5	0.7	·
CCCS(=O)(=O)N1CCCC(C(=O)Oc2ccc(Cl)cc2)C1 (centres undefined)	2.7	0.1	4	6	3.7	3	-6	12	-3.6	·
Cc1ccc(C2=C/C(=C/c3cccnc3)C(=O)O2)c(C)c1	34*	0.3	3	-4	-0.1	-14	-2	14	-0.1	20%
O=C1c2ccccc2NC(c2ccc(-c3ccccc3F)o2)N1O (centres undefined)	·	-0.7	2	12	4.0	·	-2	·	0.1	·

Bioassay records: PubChem, several laboratories
